Screening results (PubChem BioAssay)
PINK1 expr mod – A Quantitative High throughput Screen to Identify Chemical Modulators of PINK1 Expression; 410,000 compounds, 0.2% hits; PINK1 immunofluorescence, high-content cytometry, 24 h; Potency, µM (series often up to 76.6 µM), inactives show at the top dose activation (PINK1 increase), actives largely listed as activators; active = well fitted activation curve with a large enough effect; inconclusive = small, poorly fitted or top-dose-only effect; inactive = flat fitted curve, though single readings scatter; cell line not stated here;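 further: potency means the concentration at half of the fitted maximal effect; % of control where 0% means no effect; nearly all actives have a fitted effect of over 65% in size; a mitochondrial uncoupler was the plate control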
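A stable cell line was treated with compounds at 5 concentrations for 24 hours, with CCCP as control. PINK1 levels and mitochondrial localization were measured by immunofluorescence with mitochondrial, cell and nuclear markers after fixation, read by laser-scanning cytometry.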
Sfp inh – qHTS Assay for Inhibitors of Bacillus subtilis Sfp phosphopantetheinyl transferase (PPTase); 310,000 compounds, 3.5% hits; Potency, µM, inactives show max response, negative = inhibition, most hits filed as inhibitors; Biochemical Sfp PPTase activity, qHTS; active means well fitted inhibition curve with a large enough effect; inconclusive means small, poorly fitted or top-dose-only effect, or another doubt; inactive means no such curve, though single readings can be large or run the other way;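 further: the enzyme is Sfp with the accession as filed and its product quenches rhodamine fluorescence; potency means the concentration at half of the fitted maximal effect; 0% = enzyme reaction without inhibitor and -100% = no enzyme wells; top concentration of the series not given in the record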
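After 15 min at room temperature with compound, 15 nM Sfp received 5 uM rhodamine-CoA plus 12.5 uM BHQ-2-ybbR (50 mM Hepes pH 7.6, 10 mM MgCl2). Rate came from the fluorescence difference over 30 min, ex 525/em 598 nm.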
D2 ag – Beta-Arrestin HTS for Positive Allosteric Modulators of the Human D2 Dopamine Receptor: Agonists. DiscoveRx PathHunter D2 beta-arrestin, luminescence, 90 min; 100% = 57 uM dopamine signal. activation, % (no concentration beside the values). 360,000 compounds, 0.084% hits. AID 624465, 2012; in the data active = activation above about 40%; inconclusive = about 15% to 40%; inactive = below about 15%; further: compound concentration not given in the record; the text of the record calls up to 30% inactive
Target sequence (P14416 whole entry, looked up): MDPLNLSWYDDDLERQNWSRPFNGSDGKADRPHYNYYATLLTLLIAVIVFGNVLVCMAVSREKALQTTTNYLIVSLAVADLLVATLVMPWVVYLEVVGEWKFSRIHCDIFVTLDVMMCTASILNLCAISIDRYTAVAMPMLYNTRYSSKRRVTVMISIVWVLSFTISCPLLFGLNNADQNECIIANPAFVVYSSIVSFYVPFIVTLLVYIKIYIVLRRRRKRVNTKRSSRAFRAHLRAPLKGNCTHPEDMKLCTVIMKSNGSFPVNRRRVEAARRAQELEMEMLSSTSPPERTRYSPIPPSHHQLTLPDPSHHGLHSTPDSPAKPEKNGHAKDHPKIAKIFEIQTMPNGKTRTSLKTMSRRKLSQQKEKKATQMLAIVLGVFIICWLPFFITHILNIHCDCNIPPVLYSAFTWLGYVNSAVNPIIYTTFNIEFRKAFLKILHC
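DiscoveRx PathHunter D2 beta-arrestin cells (2,100/well) attached overnight, then compound-stimulated 90 min at 37 C in HBSS/10 mM HEPES/0.1% Tween-20 buffer; beta-galactosidase complementation read by luminescence after 1 h at ambient temperature. Dopamine 57 uM final (EC100) as control.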
Menin-MLL FL inh – qHTS Assay for Inhibitors Targeting the Menin-MLL Interaction in MLL Related Leukemias: Competition With Fluorescein Labeled MLL-derived Peptide; AID 1766, 2009; FP activity change, % at 61.4 µM; Fluorescence polarization, fluorescein-MLL peptide displacement from menin; 290,000 tested, under 10 active; inconclusive = falling polarisation curve, or a change in total fluorescence; inactive = total fluorescence flat and polarisation flat or rising; no compound was filed as active; the % refers to the polarisation; negative = inhibition;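 further: % of control where 0% means no effect; inhibitors lower the polarisation; unlabelled MLL peptide was the positive control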
gsp agonist – qHTS for Agonist of gsp, the Etiologic Mutation Responsible for Fibrous Dysplasia/McCune-Albright Syndrome: qHTS; AID 624287, 2012; gsp mutant cells, cAMP HTRF, 30 min; control for the full effect not named in the record; Potency, µM (doses to about 76.9 µM), inactives show at the top dose activation (cAMP increase), hits mostly activators; 340,000 compounds, 0.13% hits; active = well fitted activation curve with a large enough effect; inconclusive = small, poorly fitted or top-dose-only effect, or another doubt; inactive = no such curve, though single readings can be large or run the other way; cell line not stated here;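 further: phosphodiesterase inhibitor Ro 20-1724 added with compounds to block cAMP breakdown; potency means the concentration at half of the fitted maximal effect; nearly all actives have a fitted effect of over 60% in size; about a fifth of the inactives were tested at one dose only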
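Cells stably selected in G418 were plated at 2000/well, grown 16-24 hr, then given compounds in DMSO with the PDE inhibitor […] (300 uM solution added) for 30 min at 37C; cAMP was read by HTRF.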
gsp antagonist – qHTS for Antagonists of gsp, the Etiologic Mutation Responsible for Fibrous Dysplasia/McCune-Albright Syndrome: qHTS | gsp-mutant cells, cAMP HTRF, 30 min; control for the full effect not named in the record | Potency, µM (top dose mostly 76.9 µM), for the others: at the highest dose activity change, negative = inhibition, most hits filed as inhibitors | 340,000 compounds, 0.4% hits | AID 624288, 2012; active = falling curve of any shape with a large fitted effect; inconclusive = falling curve, mostly with a smaller effect; inactive = flat or rising curve; cell line not stated here;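 further: intracellular cAMP measured with PDE inhibitor Ro 20-1724 present during compound exposure; potency means the concentration at half of the fitted maximal effect; on the % scale 0 is the no-effect control and ±100 the full control effect; nearly all actives have a fitted effect of over 65% in size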
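HTRF cAMP read-out (cAMP-d2 plus anti-cAMP antibody-K in lysis buffer, 30 min RT). Before lysis, cells are exposed to compounds with […] for 30 min at 37C in DPBS containing Ca/Mg, BSA and Tween 20.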
ClpP mod – qHTS Assay for Activators of ClpP; ATP-dependent Clp protease proteolytic subunit (Bacillus subtilis (strain 168)), P80244; purified B. subtilis ClpP, FRET peptide cleavage, 20 min; Potency, µM (series often up to 57.5 µM), without a hit: at the highest dose activity change, negative = active; 340,000 compounds, 1.9% hits; AID 651965, 2013; active = well fitted falling curve with a large enough effect; inconclusive = small, poorly fitted or top-dose-only effect; inactive = no such curve, though single readings can be large or run the other way; further: potency means the concentration at half of the fitted maximal effect; the source files actives as falling curves though it sought activators and does not explain the sign; nearly all actives have a fitted effect of over 65% in size; many hits overshoot -100%
Target sequence (P80244 whole entry, looked up): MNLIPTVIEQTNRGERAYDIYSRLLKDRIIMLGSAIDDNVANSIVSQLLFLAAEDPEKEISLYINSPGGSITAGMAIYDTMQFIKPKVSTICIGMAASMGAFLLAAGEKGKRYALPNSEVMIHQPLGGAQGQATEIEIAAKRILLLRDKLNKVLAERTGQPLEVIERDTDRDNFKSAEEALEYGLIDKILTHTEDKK
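Purified B. subtilis ClpP, 10 microg/mL final in Tris/HCl pH8 with KCl, BSA, glycerol and Tween-20, cleaved an Abz/nitrotyrosine-quenched decapeptide. Fluorescence (ex 320, em 430) was read at 0 and 20 min at room temperature. Delta was normalized to 5.8 microM ADEP and DMSO/no-enzyme controls.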
Active calls of the source: *; u = inconclusive; x = no result given; [ ] = dose if it differs, or a comment.

SMILES	PINK1 expr mod	Sfp inh	D2 ag	Menin-MLL FL inh	gsp agonist	gsp antagonist	ClpP mod
O=C(CNC(=O)c1ccc(F)cc1)Nc1ccccc1C(F)(F)F	-0.1%	-12%	5.8	-5.4	9%	15%	-0.4%
N/C(CS(=O)(=O)c1ccc(F)cc1)=N\O	1.9%	15%	-3.1	-0.5	-44%[inhibitor]	13%	x
COc1cccc(/C=C2\SC(=S)N(C(Cc3ccccc3)C(=O)O)C2=O)c1 (configuration not stated)	-1.1%	-17%	0.6	-0.1	-5%	-8%	x
Cc1noc(C)c1S(=O)(=O)N1CCCC(C(=O)NCCc2ccccc2)C1 (configuration not stated)	1.4%	-2%	-0.7	3.6	6%	9%	-1.3%
C=CCOc1c(CCC)cc(CCC)cc1C(N)=O	4.9%	17%	-1.5	5.4	9%[15.4 µM]	-7%	x
Cc1cc(C)c(NC(=O)COC(=O)c2cc([N+](=O)[O-])ccc2N2CCOCC2)c(C)c1	-1.0%	8%	-3.6	x	-11%[15.4 µM]	6%	-1.4%
Cn1nc(C(C)(C)C)cc1NC(=O)C1(C)CCN1C(=O)c1ccccc1CCc1ccccc1 (configuration not stated)	3.0%	x	-8.5	x	x	x	1.9%
COc1ccc(NC(=O)CSc2nnc(-c3cccs3)n2N)cc1S(N)(=O)=O	0.5%	x	-3.6	x	u	7%	x
Cc1cccc(-c2noc(CCCC(=O)NC3CCCCC3)n2)c1	0.7%	12%	1.3	1.0	-5%[15.4 µM]	-14%	x
CC(C)C1Cc2[nH]c(=S)[nH]c(=O)c2C(c2ccc(Cl)cc2)O1 (configuration not stated)	0.9%	x	-5.4	x	x	x	-1.1%
CSCCC(NC(=O)c1ccc(Cl)cc1)C(=O)OCC(C)=O (configuration not stated)	-2.0%	4%	-6.4	-0.2	-7%[15.4 µM]	-22%	0.6%
O=C(Nc1nnc(C(F)(F)F)s1)c1ccc(Br)s1	u	2%	-10	-1.7	-6%[15.4 µM]	-27%	-7.9%
CC(C)C(Sc1nc(-c2ccccc2)cc(-c2ccccc2)c1C#N)C(=O)O (configuration not stated)	-1.3%	-1%	8.8	2.4	u	u	x
N#Cc1c(-c2ccc(F)cc2)c2c([nH]c1=O)-c1ccccc1OC2	6.2%	11%	-1.1	1.1	14%	-3%	x
Cc1cccc(Nc2ccccc2)c1	1.2%	16%	-1.2	0.2	-4%	-7%	-6.2%
O=C(Nc1cccc(S(=O)(=O)N2CCCC2)c1)[C@H]1C[C@H](O)[C@@H](CO)O1	0.5%	x	-3.8	x	x	x	-3.4%
O=C(CC1SC(=O)NC1=O)Nc1ccc(Cl)cc1 (configuration not stated)	0.6%	12%	-0.1	4.2	-1%[15.4 µM]	-1%	x
COc1ccccc1C1CCN(Cc2ccccc2Cl)CC1	20%	10%	-0.2	u	20%[15.4 µM]	-14%	0.7%
COC(=O)c1c(NC(=O)CSc2nnc3ccccn23)sc2c1CCC2	1.5%	-1%	-1.8	0.0	-2%[15.4 µM]	-14%	28µM*
CC(C)OCCCNc1nc(Cl)nc2c1cnn2C	-1.0%	x	-0.3	x	18%[15.4 µM]	5%	u
CC(C)c1ccc(Nc2nc(Cl)nc(NCc3ccco3)n2)cc1	0.6%	23%	6.1	0.2	-4%	1%	-3.9%
Nc1ncnc(Oc2ccccc2F)c1[N+](=O)[O-]	0.0%	21%	-0.5	-0.6	-2%	0%	x
CC(C)C(=O)Nc1cccc(COc2ccc(CN(CCc3ccccc3)C(=O)OC(C)(C)C)cc2)c1	4.2%	x	-1.0	x	x	-5%	-2.6%
O=C(c1cccc(Br)c1)N1CCCC1	2.6%[38.3 µM]	11%	-2.1	2.8	6%	12%	0.0%
CCOC(=O)C(CCC#N)(CCC#N)C(=O)OCC	-1.6%	23%	-2.0	1.8	9%	2%	-2.2%
O=C(COC(=O)Cc1cccc(C(F)(F)F)c1)Nc1ccc2[nH]c(=O)[nH]c2c1	9.5%	x	-1.3	x	11%	-1%	-0.2%
COc1ccc(CCNc2ncnc3[nH]ncc23)cc1OC	-0.2%	8%	-4.2	5.0	0%[15.4 µM]	1%	u
c1csc(C(c2nnnn2C2CCCC2)N2CCOCC2)c1 (configuration not stated)	-0.3%	-4%	-0.1	-0.7	-3%	-2%	-2.1%
COc1ccc(-n2c(SCC#N)nnc2-c2cccnc2)cc1	-3.9%	11%	-1.9	u	-13%	-7%	-1.2%
CSc1ccc(C(O)c2ncc(-c3cccc(OCc4ccccc4)c3)[nH]2)cc1 (configuration not stated)	27%	x	2.1	x	x	x	-8.7%
CCn1cc(S(=O)(=O)c2ccc(Cl)cc2)c(=O)c2cc(OC)ccc21	2.6%	7%	-0.1	x	-30%[inhibitor]	3%	-23%
CN(CCNC(=O)C1CCC(=O)N(Cc2ccc(Cl)cc2)C1)CCc1ccccc1 (configuration not stated)	1.8%	2%	2.8	-1.6	-11%	-14%	-2.2%
Nc1nc(SCc2cccnc2)c2ncn(C3OC(CO)C(O)C3O)c2n1 (configuration not stated)	1.8%	x	-3.3	x	u	14%	x
CCn1c2ccccc2c2cc(NC(=O)C(C)OC(=O)c3ccc(NC(=O)CC#N)cc3)ccc21 (configuration not stated)	-0.8%	x	-4.6	x	u	6%	-4.7%
CCCC(C)NC(=O)c1cc(C(=O)OC)cc([N+](=O)[O-])c1 (configuration not stated)	1.5%	-2%	-0.2	1.5	18%	6%	-2.1%
CC(OC(=O)c1ccccc1Br)C(=O)Nc1nc(-c2cccc([N+](=O)[O-])c2)cs1 (configuration not stated)	4.4%	3%	-3.7	2.5	18%[15.4 µM]	-11%	-0.5%
CSc1c(C#N)sc(=S)n1-c1ccc(C)cc1	0.7%	-1%	-4.1	8.5	0%[15.4 µM]	-7%	x
COC(=O)C1CCCN1S(=O)(=O)c1ccc([N+](=O)[O-])cc1 (configuration not stated)	0.4%	5%	3.4	-1.9	-1%	-1%	-1.5%
Cn1c(CN2CCCCC2)nc2cc(NS(=O)(=O)c3ccc(Cl)cc3)ccc21	-0.2%[38.3 µM]	-5%	-3.6	1.5	8%	1%	-2.9%
Cc1cccc(NC(=O)CSc2nnc(CSc3nc(C)cc(C)n3)n2Cc2ccco2)c1	-1.0%	-6%	-5.1	0.6	-28%	u	1.6%
Cc1ccc(CCNC(=O)CNS(=O)(=O)c2ccc3nc(C)sc3c2)cc1	4.4%	11%	-0.3	x	3%	12%	2.0%
Cc1onc(-c2ccccc2Cl)c1C(=O)N1CCN(c2ccc(F)cc2)CC1	5.0%	12%	3.2	1.7	u	0%	x
Cc1ccc(-c2csc(=S)n2CC(=O)OCC(=O)NCc2ccco2)cc1	6.6%[38.3 µM]	22µM*	3.8	5.0	-20%	-33%	0.9%
O=C(COC(=O)c1cncc(Br)c1)Nc1ccc(N2CCCCC2)cc1	2.8%	x	-1.4	x	1%	-3%	1.4%
CCN(CC)CCCN1C(=O)C(=O)/C(=C(/O)c2ccc(OC)cc2)C1c1ccco1 (configuration not stated)	5.9%	x	-3.7	x	-3%[15.4 µM]	11%	x
CC(=O)Cc1nsc(NC(=O)c2cn(-c3ccccc3)nc2-c2ccc(Br)cc2)n1	x	4%	-0.8	-1.3	13%	-1%	0.1%
Cc1cc(C)cc(C(=O)Nc2ccncc2)c1	1.0%	2%	-2.8	-5.0	5%	6%	-0.5%
O=[N+]([O-])c1cc(/C=N/Nc2nc3ccccc3[nH]2)c(O)cc1O	-1.5%	-21%	-6.4	1.4	-22%	u	3.2%
Cc1ccc(Sc2ncccc2N)cc1	-1.6%	x	-3.2	x	4%[15.4 µM]	3%	x
CCOc1ccc(/C=C(/C#N)c2nnc(N3CCOCC3)n2-c2ccccc2)cc1OC	-0.2%	x	0.2	x	u	-12%	x
CCn1c(C(Cc2ccccc2)NC(=O)COC)nc2ccccc21 (configuration not stated)	4.1%	18%	-3.8	-1.6	-45%[inhibitor]	-8%	-2.7%
CC(C)(C)OC(=O)N1CCOCCOCCNCCOCCOCC1	-2.1%	14%	-2.8	-3.9	-2%	2%	0.1%
CCOc1ccc(C2=Nc3ccccc3C(c3ccc(N4CCOCC4)cc3)=NN2)cc1	u	3%	-4.1	-0.1	-53%[inhibitor]	-3%	-5.4%
COc1ccc(N2C(=O)C3C(c4ccc(C(=O)O)cc4)NC(Cc4ccccc4)(C(=O)O)C3C2=O)c([N+](=O)[O-])c1 (configuration not stated)	0.5%	-24%	-3.3	2.2	16%[15.4 µM]	12%	x
C[C@@H]1CN([C@H](C)CO)C(=O)c2cc(NC(=O)Cc3cn(C)c4ccccc34)ccc2O[C@H]1CN(C)C(=O)Nc1ccc2c(c1)OCO2	-0.4%	x	-2.2	x	-28%	4%	-4.0%
OCCOCCNc1ncnc2sc(-c3ccccc3)cc12	-1.1%	-15%	-1.7	3.0	12%	4%	32µM*
CSc1nsc(/C=C/Nc2cccc(Cl)c2)c1C#N	5.3%	-1%	-1.8	u	u	-8%	1.7%
CCOC(=O)N1CCN(S(=O)(=O)c2cc(C)c(C)cc2C)CC1	-1.8%	-6%	-4.9	6.5	0%	-9%	0.8%
CC(=O)c1cccc(NC(=S)NC(=O)c2ccccc2)c1	-2.4%	u	-1.9	-0.1	-1%	3%	2.2%

Random draw from the library, and some 5.1% of all compounds hit somewhere here.
